Screens: PubChem BioAssay, National Center for Advancing Translational Sciences (NCATS)
StopGo reporter – High Throughput Screening for Foot and Mouth Disease Virus Antivirals | 410,000 compounds, 1.2% hits | AID 1159524, 2015 | human cells with a luciferase reporter of 2A StopGo recoding; control for the full effect not named in the record | Potency, µM (highest dose often 57.9 µM), inactives show at the top dose signal change, negative = less light; active = well fitted falling curve with a large enough effect; inconclusive = small, poorly fitted or top-dose-only effect; inactive = no such curve, though single readings can be large or run the other way; tested in HEK293T cells; note: % is set by controls: 0 for no effect and ±100 for the full control effect; nearly all actives have a fitted effect of over 45% in size; luciferase light after 4 h
NS1 function inh – qHTS Assay for Inhibitors of Influenza NS1 Protein Function; S. cerevisiae slowed by influenza A NS1, growth recovery by OD600; Potency, µM (doses to about 46.1 µM), inactives show at the top dose activity, positive = more growth; 270,000 compounds, 0.4% hits; AID 2326, 2010; active means well fitted rising curve with a large enough effect; inconclusive means small, poorly fitted or top-dose-only effect; inactive means no such curve, though single readings can be large or run the other way; note: nearly all actives have a fitted effect of over 50% in size
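Read-out: OD600 growth recovery of NS1-expressing budding yeast. Cells grown overnight at 30C in -URA glucose medium, washed, resuspended and diluted 1:100 in 2% galactose assay medium, pH 6.0. Same strain lacking NS1 served as positive control.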
Cruzain inh noDet – qHTS Assay for Promiscuous and Specific Inhibitors of Cruzain (without detergent) | Cruzipain (Trypanosoma cruzi), P25779 | purified cruzain, Z-FR-AMC fluorescence, no detergent | Potency, µM, inactives show max response, negative = inhibition, actives largely listed as inhibitors | 200,000 compounds, 2.3% hits;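 note: plate controls were enzyme without inhibitor for no effect and buffer without enzyme for full effect; nearly all actives have a fitted effect of over 40% in size; top concentration of the series not given in the record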
Target sequence (P25779 123-467 limits assumed): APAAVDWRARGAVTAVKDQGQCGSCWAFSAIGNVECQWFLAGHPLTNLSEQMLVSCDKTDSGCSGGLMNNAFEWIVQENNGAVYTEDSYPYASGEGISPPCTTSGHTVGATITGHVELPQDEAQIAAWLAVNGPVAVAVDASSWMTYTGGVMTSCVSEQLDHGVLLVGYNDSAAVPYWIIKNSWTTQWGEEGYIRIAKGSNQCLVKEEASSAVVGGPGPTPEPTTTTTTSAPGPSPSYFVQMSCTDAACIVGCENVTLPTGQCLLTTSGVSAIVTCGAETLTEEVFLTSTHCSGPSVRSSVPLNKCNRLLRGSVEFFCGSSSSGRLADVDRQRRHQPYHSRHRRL
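Purified cruzain at 1.5 nM, pre-incubated 15 min with compound at room temperature in 100 mM sodium acetate pH 5.5, 5 mM DTT, 0.00005% Triton X-100. Reaction started with 2 uM Z-FR-AMC; AMC fluorescence increase over 60 s gives rate.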
Cruzain inh Det – qHTS Assay for Promiscuous and Specific Inhibitors of Cruzain (with detergent). 200,000 compounds, 0.43% hits. Cruzipain (Trypanosoma cruzi), P25779. purified cruzain, Z-FR-AMC fluorescence, 0.01% Triton. Potency, µM, inactives show max response, negative = inhibition, usual class: inhibitors;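 note: plate controls were neutral wells for no effect and buffer without enzyme for full effect; nearly all actives have a fitted effect of over 40% in size; top concentration of the series not given in the record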
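Sodium acetate buffer (100 mM, pH 5.5) containing 5 mM DTT and 0.01% Triton X-100 hosted 1.5 nM cruzain and test compound for 15 min at room temperature. Cleavage of 2 uM Z-FR-AMC was then tracked by fluorescence.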
RE007 growth inh – qHTS Assay for Inhibitors of the HIV-1 protein Vpr | S. pombe RE007 Vpr strain, BacTiter-Glo ATP luminescence, 24 h; control for the full effect not named in the record | Potency, µM (highest dose often 92.2 µM), without a hit: at the top dose activity change, negative = less growth | 360,000 compounds, 0.21% hits | AID 651644, 2012; active = well fitted falling curve with a large enough effect; inconclusive = small, poorly fitted or top-dose-only effect; inactive = no such curve, though single readings can be large or run the other way;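 note: % is set by controls: 0 for no effect and ±100 for the full control effect; nearly all actives have a fitted effect of over 50% in size; the assay follows cell death caused by Vpr and the record does not say whether a fall means rescue or toxicity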
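Fission yeast RE007 carrying one integrated HIV-1 vpr copy, seeded at OD 0.01 in PMG+AL medium with 23 nL pinned compound. Grown 24 h at 30 degrees; viability read by BacTiter-Glo luminescence after 5 min.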
MARV entry inh – qHTS for inhibitors of binding or entry into cells for Marburg Virus | Potency, µM (highest dose often 37.8 µM), inactives show at the highest dose activity change, negative = inhibition, most hits filed as inhibitors | Marburg virus pseudotyped entry inhibition, cell reporter; control for the full effect not named in the record; about a third of the inactives were read at about 46 µM | AID 540276, 2011 | 300,000 compounds, 1.8% hits; active = well fitted inhibition curve with a large enough effect; inconclusive = small, poorly fitted or top-dose-only effect, or effect the other way; inactive = flat fitted curve, though single readings scatter; tested in HEK293 cells; about a fifth of its hits are not listed in these tables; note: % is set by controls: 0 for no effect and ±100 for the full control effect; luciferase read-out
SARS PLP yeast – qHTS of Yeast-based Assay for SARS-CoV PLP. S. cerevisiae expressing SARS-CoV PLpro, growth rescue; control for the full effect not named in the record. Potency, µM (titrated, usually from 32.9 µM), without a hit: top-dose activity, positive = growth rescue. 330,000 compounds, 0.19% hits; active means well fitted rising curve with a large enough effect; inconclusive means small, poorly fitted or top-dose-only effect; inactive means no such curve, though single readings can be large or run the other way; note: 0% is about no effect; nearly all actives have a fitted effect of over 55% in size; growth read by luminescence after 48 h
LASV entry inh – qHTS for Inhibitors of binding or entry into cells for Lassa Virus; Lassa virus pseudotype entry inhibition, cell reporter; control for the full effect not named in the record; Potency, µM (titrated, usually from 37.9 µM), inactives show top-dose activity change, negative = inhibition, hits mostly inhibitors; 300,000 compounds, 1.2% hits; active means well fitted inhibition curve with a large enough effect; inconclusive means small, poorly fitted or top-dose-only effect, or effect the other way; inactive means flat fitted curve, though single readings scatter; tested in HEK293 cells; note: % is set by controls: 0 for no effect and ±100 for the full control effect; nearly all actives have a fitted effect of over 50% in size; luciferase read-out
* = called active by the depositor; ? = inconclusive; · = not tested or not shown; [ ] = another dose, or the depositor's remark. Unless noted, calls come from the whole dose curve; as a rule, active = well fitted curve in the direction sought with a large enough effect; inconclusive = small, poorly fitted or top-dose-only effect, or another doubt; inactive = no such curve, though single readings can be large; an effect the other way counts as inactive or inconclusive. Potency is the fitted concentration of half-maximal effect.

SMILES | StopGo reporter | NS1 function inh | Cruzain inh noDet | Cruzain inh Det | RE007 growth inh | MARV entry inh | SARS PLP yeast | LASV entry inh
Cc1nn(C)c(C(=O)NNC(=S)NCC(C)C)c1Cl | -22.1% | 5.8% | 0.2% | 0.0% | 19.4% | 13.0% | -7.5% | 15.3%
COc1ccccc1CNC(=O)C(C)Sc1ccc(C)cc1 (stereo not given) | -23.0% | -6.1% | · | · | 2.2% | 7.7%[46.1 µM] | 0.4% | 3.8%
COc1ccccc1OCC(=O)NCc1n[nH]c(=O)c2ccccc12 | -2.5% | · | · | · | -8.7% | ? | -5.0% | 38.6%
O=C(COC(=O)Cc1ccsc1)Nc1ccc(Cl)cn1 | -10.9% | · | · | · | ? | ? | -10.7% | 17.0%
O=C(CCc1ccccc1)NCc1ccc2c(c1)CCN2C(=O)c1ccc(Cl)cc1 | -3.1% | · | 0.6% | 1.1% | · | · | · | 14.6%[46.1 µM]
O=[N+]([O-])c1cccc(/C=N/NC2=NCCCCC2)c1 | 30.8%[activator] | 10.4% | -10.3% | -4.1% | -2.5% | 7.1% | 3.3% | ?
Cc1ccc(Nc2nc(N)c3ccccc3n2)cc1Cl | -40.5% | -14.6% | · | · | -13.3% | · | -2.7% | ·
Cc1nc2ccc(Cl)cc2[nH]1 | -15.8% | · | -1.8% | -0.8% | -7.9% | · | · | ·
COc1cccc(C(=O)NCC(=O)N/N=C/c2cccs2)c1 | -10.2% | -0.6% | -4.3% | -0.6% | 11.0% | 1.2% | 5.5% | -24.9%
FC(F)=C(F)CCSc1ncn[nH]1 | -3.6% | 3.5% | · | · | 4.3% | 29.0%[46.1 µM] | 1.6% | -16.0%
C/C(=C/C(=O)NCc1ccccc1)C(=O)O | -14.0% | 12.0% | -1.5% | 1.0% | -31.9% | 22.3% | -10.9% | 0.2%
CCOc1cc(/C=C\c2[nH]c(=O)[nH]c(=O)c2[N+](=O)[O-])ccc1OC(C)CC (stereo not given) | 8.91µM* | 7.0% | 8.6% | -2.4% | -9.8% | -28.2% | 11.3% | -27.9%
Cc1ccccc1NC(=O)NC1(C(=O)N2CCN(C)CC2)CCCCC1 | 3.8% | 10.4% | · | · | -9.3% | 1.9%[46.1 µM] | 0.7% | ?
Cc1ccc(NC(=O)c2cccc(NC(=O)N3CCSc4ncccc43)c2)cc1F | 3.3% | · | 3.0% | -4.6% | · | · | · | -4.7%[46.1 µM]
Cc1cc(Cl)nc(N)n1 | -12.9% | -5.1% | -5.2% | -2.2% | 2.2% | 27.6% | 13.4% | 5.1%
Cc1cc(=O)oc2cc(OCC(=O)NCc3cccnc3)ccc12 | 14.0% | 1.4% | -1.3% | 1.9% | -0.9% | 10.9% | 1.0% | ?
CC1CCN(S(=O)(=O)c2ccc3c(c2)N(CC(=O)NCc2ccccc2Cl)C(=O)CO3)CC1 | -10.7% | · | -2.3% | -9.3% | · | -16.5%[46.1 µM] | · | -21.3%[46.1 µM]
C[n+]1ccc(/C=N/Nc2nc(Cl)c(C#N)c(Cl)c2Cl)cc1 | -19.9% | -59.4% | · | · | ? | · | -6.0% | ·
Cc1cc(N=CC2=C(O)CC(C)(C)CC2=O)no1 | -29.3% | 21.0% | 4.5% | 2.5% | 0.0% | 10.4% | 2.6% | 6.5%
COc1ccc(CC(=O)OC(C)C(=O)NC2CCCCC2C)cc1 (stereo not given) | -4.1% | · | · | · | -4.3% | -25.3%[46.1 µM] | -2.6% | -2.5%
Cc1ccc2sc(-c3ccc(NC(=O)c4cc(-n5cnnc5)ccc4Cl)cc3)nc2c1 | 8.2% | 13.3% | 0.1% | -7.5% | 1.3% | ? | 8.6% | ?
CC(NC(=O)CCn1ccc2cc(S(=O)(=O)N3CCCC3)ccc21)c1ccccc1 (stereo not given) | 0.0% | -1.1% | · | · | -8.9% | · | -0.9% | ·
C=CCn1c(CSCc2ccc(Cl)cc2)nnc1SCC(=O)NCc1ccccc1 | -3.3% | 0.8% | ? | -0.4% | 0.9% | 1.7% | 13.0% | -8.2%
Cc1ccc(CCNS(=O)(=O)c2cc3c(cc2C)n(C)c(=O)c(=O)n3C)cc1 | 5.5% | 12.4% | · | · | 0.5% | · | -2.3% | ·
O=C(NCCc1ccccc1)C1(c2cccs2)CCOCC1 | 9.6% | · | 10.0% | 0.7% | · | · | · | -19.4%[46.1 µM]
Cc1cc(Nc2cccc(F)c2)n2ncnc2n1 | 7.0% | -0.6% | -4.0% | -0.3% | -4.9% | ? | 8.0% | 0.4%
CC1CCN(CCCNC(=O)c2ccc(CS(=O)(=O)Cc3ccccc3F)o2)CC1 | -12.0% | ? | -2.8% | -1.6% | 14.6% | 13.7% | 11.2% | 11.9%
Cc1ccc([N+](=O)[O-])cc1N=Cc1ccc(Br)s1 | -1.7% | -7.3% | 1.7% | 0.5% | -12.0% | 2.0% | ? | -7.7%
COc1ccccc1C1(CC(=O)O)CCOC(C(C)C)C1 (stereo not given) | -24.3% | 7.4% | 0.0% | 3.3% | 2.8% | 20.1% | -3.9% | -0.4%
COc1ccc(/C=C2\CCCC3C2=NN(C(=O)c2scnc2C)C3c2ccc(OC)c(OC)c2)cc1OC (stereo not given) | -3.0% | 9.4% | ? | -14.5% | 0.0% | ? | 8.8% | 5.17µM*
Cc1cc(C(F)(F)F)nn1Cc1ccc(C(=O)NCc2ccco2)o1 | -14.4% | 3.7% | ? | -3.2% | 5.8% | 22.5% | -0.3% | ?
COc1ccccc1NC(=O)Nc1sccc1-c1nc2ccccc2s1 | -19.1% | 3.9% | · | · | -11.1% | · | 0.2% | ·
O=C(Nc1cc(-c2nc3ccccc3o2)ccc1Cl)c1ccc(Br)o1 | 21.6% | · | -3.7% | -1.5% | · | · | · | 19.9%[46.1 µM]
COc1ccc(C)cc1S(=O)(=O)N(C)CC(=O)N1CCC(C)CC1 | · | -6.8% | 2.2% | 0.5% | -3.2% | -15.6% | 8.7% | -8.0%
COc1cccc(NC(=O)Nc2ccc3c(c2)nc(C)n3C)c1 | -39.6% | 1.6% | · | · | -25.5% | ? | -1.3% | ?
CCOc1cccc(C2C(C#N)=C(N)Oc3cc(C)[nH]c(=O)c32)c1OCC (stereo not given) | -23.2% | 0.2% | · | · | -3.5% | 0.9% | 1.6% | ·
COCCOCC(O)CN1CCN(c2ccc(C)cc2)CC1 (stereo not given) | -11.1% | 2.2% | 13.4% | 5.0% | -0.5% | 2.2% | 7.4% | -2.0%
COc1ccc(S(=O)(=O)N(C)CC(=O)N2CCCC2)cc1Cl | -11.1% | 2.0% | · | · | -12.4% | ? | -0.9% | 0.9%
COC(=O)c1ccc(NS(=O)(=O)c2ccc(SC)cc2)cc1 | · | -32.0% | -13.0% | -13.3% | 0.0% | 10.6% | -13.2% | -15.0%
COc1cc(OC)cc(C(=O)NNC(=O)CCC(=O)c2cccs2)c1 | -12.6% | -3.4% | · | · | -4.2% | -5.2% | -4.7% | 3.1%
CCN(CC)CCCn1c(SCC(=O)Nc2cccc(F)c2)nnc1-c1ccoc1C | -3.5% | -11.2% | · | · | -4.4% | -10.2%[46.1 µM] | 1.6% | 3.1%
O=C(Cc1cccs1)N1CCCC(c2nc3c(nnn3Cc3ccccc3Cl)c(=O)[nH]2)C1 (stereo not given) | -21.0% | -3.3% | ? | 3.4% | 0.3% | -2.3% | 1.8% | -11.4%
CNC(=O)COc1ccc(-c2nn(C)c(=O)c3ccccc23)cc1 | -0.4% | 7.7% | 0.3% | -3.0% | -12.8%[3.69 µM] | -1.1% | 9.1% | -4.9%
Cc1cc(/C=C2/C(=O)NC(=O)N(c3ccccc3)C2=O)c(C)n1-c1ccc(F)cc1 | -18.2% | · | · | · | 3.3% | -17.7% | · | -20.6%
COc1cc([N+](=O)[O-])ccc1NC(=O)CCCOc1cc(C)ccc1C | -20.5% | 4.4% | 3.3% | -8.3% | 0.9% | -0.6% | -31.0% | -2.9%
CCCCc1cc(=O)oc2cc(C)cc(OC(C)C(=O)NCc3ccncc3)c12 (stereo not given) | -15.2% | -18.9% | · | · | 0.2% | · | 0.5% | ·
COc1cccc(CN(C)C(=O)c2ccc(Oc3ccccc3)cc2)c1OC | -2.6% | -19.8% | · | · | 0.8% | -0.3%[46.1 µM] | -3.1% | -15.8%
O=C(O)c1ccc(N2C(=O)CC(N3CCN(c4ccc(Cl)cc4)CC3)C2=O)cc1 (stereo not given) | -19.0% | 10.8% | · | · | -0.6% | · | -0.4% | ·
CCCCCn1c(CN2CCN(C)CC2)nc2c1c(=O)n(C)c(=O)n2C | -24.3% | 10.9% | -1.0% | 3.3% | -7.5% | · | 3.3% | ·
O=C(OCCn1c(=S)sc2ccccc21)c1ccccc1 | 3.1% | · | · | · | 13.1% | -13.7% | · | 8.7%[46.1 µM]
O=C(Cn1c(=O)oc2ccccc21)Nc1ccc(Cl)cc1Cl | -6.4% | 5.9% | · | · | -4.5% | · | -1.5% | ·
N#C/C(=C\C1=C(N2CCOCC2)C(=C\c2ccccc2)/CC1)C(=O)Nc1ccccc1F | ? | 20.6% | ? | -4.8% | -13.5% | ? | -4.1% | ?

Profiles from above.
N#C/C(=C\C1=C(N2CCOCC2)C(=C\c2ccccc2)/CC1)C(=O)Nc1ccccc1F is entered as StopGo reporter = ?; NS1 function inh = 20.6%; Cruzain inh noDet = ?; Cruzain inh Det = -4.8%; RE007 growth inh = -13.5%; MARV entry inh = ?; SARS PLP yeast = -4.1%; LASV entry inh = ?
O=C(Cn1c(=O)oc2ccccc21)Nc1ccc(Cl)cc1Cl is entered as StopGo reporter = -6.4%; NS1 function inh = 5.9%; Cruzain inh noDet = ·; Cruzain inh Det = ·; RE007 growth inh = -4.5%; MARV entry inh = ·; SARS PLP yeast = -1.5%; LASV entry inh = ·
